Screening results as filed in PubChem.
Arbovirus anti – antivirals against arbovirus infection; arbovirus infection cell-based antiviral screen; inhibition, % at 10 µM; 200,000 tested, 0.37% active; AID 1251;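 active means inhibition from about 30%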;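 further: bluetongue infection of BSR cells; cell survival read as ATP light after 72 h; 0% = infected wells without compound and 100% = uninfected wells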
Mtb bLac sens – beta-lactam sensitization of Mtb H37Rv; M. tuberculosis H37Rv growth with meropenem, percent inhibition; hits of this screen are not shown here; inhibition, % at 25 µM; 330,000 tested, 0.27% active; AID 434955;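 active means about 74% or more and at least 40 points above the plate without the antibiotic, then above 30% in a dose series; inconclusive means first-round hits that could not be retested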;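 further: growth measured after seven days incubation then overnight dye step; 0% = bacteria only wells and 100% = bacteria with antibiotic; twin plates without the antibiotic show which effects depend on it; some results filed as inactive read as strong as hits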
RecA splice inh – inhibitors of M. tuberculosis RecA intein splicing; 290,000 tested, 0.75% active; inhibition, %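 (about 9 µM by stock and volumes)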; cell-free RecA intein splicing, fluorescence; AID 2221; in the data active means inhibition above about 30%; inconclusive means no clear call, values can overlap the other calls;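 further: 0% = vehicle wells and 100% = reference inhibitor control wells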
Target sequence (P9WHJ3 whole entry, looked up, canonical isoform): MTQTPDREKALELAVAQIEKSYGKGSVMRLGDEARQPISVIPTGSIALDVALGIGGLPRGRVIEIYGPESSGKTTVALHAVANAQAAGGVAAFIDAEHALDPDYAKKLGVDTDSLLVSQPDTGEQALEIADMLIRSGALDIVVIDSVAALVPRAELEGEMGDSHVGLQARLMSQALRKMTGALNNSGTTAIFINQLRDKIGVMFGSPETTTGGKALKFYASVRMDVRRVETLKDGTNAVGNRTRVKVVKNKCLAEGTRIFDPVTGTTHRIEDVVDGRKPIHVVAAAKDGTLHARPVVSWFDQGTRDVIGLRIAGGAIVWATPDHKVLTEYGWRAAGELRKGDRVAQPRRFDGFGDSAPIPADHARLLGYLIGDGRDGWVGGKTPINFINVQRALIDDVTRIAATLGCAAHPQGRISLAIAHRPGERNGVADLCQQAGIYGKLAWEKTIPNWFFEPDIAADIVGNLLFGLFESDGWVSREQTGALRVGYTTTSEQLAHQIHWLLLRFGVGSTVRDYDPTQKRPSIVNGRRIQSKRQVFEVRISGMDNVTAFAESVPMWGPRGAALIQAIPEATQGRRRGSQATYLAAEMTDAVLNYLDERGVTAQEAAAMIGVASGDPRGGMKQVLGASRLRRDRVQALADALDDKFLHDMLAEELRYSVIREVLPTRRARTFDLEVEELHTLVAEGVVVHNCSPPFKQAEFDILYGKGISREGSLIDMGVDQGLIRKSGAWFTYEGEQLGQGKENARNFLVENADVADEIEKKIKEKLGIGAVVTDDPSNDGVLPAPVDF
Mtb growth – M. tuberculosis H37Rv growth inhibitors, H37Rv strain (AID 1626); 220,000 tested, 0.95% active; inhibition, % at 10 µM; hits with a dose series show IC50 in µM; M. tuberculosis H37Rv growth inhibition; higher % means a stronger effect;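 active means confirmed in a dose series; inconclusive means inhibition above 80% but not taken into the dose series; inactive means below 80% or under 30% at every dose of the series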;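 further: bacteria incubated seven days before Alamar blue readout; 0% = bacteria only wells and 100% = bacteria with antibiotic wells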
YopH inh – inhibitors of Yersinia enterocolitica YopH tyrosine phosphatase; fluorescence Ex485/Em525; inhibition, %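 (about 10 µM by stock and volumes)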; 140,000 tested, 0.16% active; AID 898;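 active means inhibition of 50% or more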;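 further: controls were vehicle for no effect and minimum signal wells for full effect; inactives centre near -20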
Arbovirus anti repeat – also measured in Arbovirus anti; calls as there; inhibition, %; measured here: 10K subset replicate screen; many hits read low in the repeat;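 first of two repeat runs on a subset; 0% = infected and 100% = uninfected wells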
Active calls of the source: *; ? = inconclusive; . = no result given.

SMILES | Arbovirus anti | Mtb bLac sens | RecA splice inh | Mtb growth | YopH inh | others
N/C(Cc1cccc2ccccc12)=N\OC(=O)c1ccc2c(c1)OCO2 | 4.4 | 2.8 | 4.5 | 7.5% | .
CN1C(c2ccc(F)cc2)=CS/C1=C(/C#N)c1nnc(N2CCOCC2)n1-c1ccccc1 | 9.6 | -5.2 | 0.9 | -12.4% | -15.1
COc1cc(NC(=O)c2cccc(COCC(F)(F)C(F)F)c2)cc(OC)c1OC | -1.9 | -5.2 | 3.6 | 1.0% | -32.8
CCC(C)n1c(O)c(/C=N/Nc2ccccc2)c(=O)[nH]c1=S (configuration not stated) | -33.4 | 36.5 | -5.0 | 75.8% | -11.9
CCS(=O)(=O)N1CCN(S(=O)(=O)c2ccc3c(c2)OCCO3)CC1 | . | 0.3 | 0.1 | . | .
Cc1ccc(SC(C)C(=O)Nc2cccnc2)cc1 (configuration not stated) | -0.2 | 3.8 | -1.0 | 2.3% | -16.2
COc1ccc(CNc2oc(-c3ccccc3)nc2C#N)cc1 | -13.3 | ? | 7.2 | 5.8% | -26.7 | Arbovirus anti repeat=18.0
Cc1ccc(C(=O)C(OC(=O)CCC(=O)Nc2cccc(C)c2)c2ccccc2)cc1 (configuration not stated) | 1.7 | 5.7 | 0.1 | -11.9% | -47.2
Cc1ccc(/C=C2\SC(=S)N(C(Cc3ccccc3)C(=O)O)C2=O)cc1 (configuration not stated) | 5.4 | 7.8 | 14.2 | 0.1% | -13.7
Nc1nnc(SCC(=O)OCC(=O)c2ccccc2Br)s1 | 9.0 | -2.0 | 1.8 | 1.5% | .
COc1ccc(-n2c(SCC(=O)Nc3sc4c(c3C#N)CCCC4)nnc2-c2ccccc2OC)cc1 | -16.2 | -2.4 | 12.1 | -10.6% | -19.1
CC(/C=N/NC(=O)c1cccc([N+](=O)[O-])c1)=C\c1ccccc1 | -11.5 | 11.0 | . | -1.7% | -19.9
CC(=O)NC1(c2ccccc2)CCN(Cc2nnnn2C(C)(C)C)CC1 | 8.6 | -7.0 | -3.3 | 1.6% | -12.3 | Arbovirus anti repeat=0.1
CCCn1c(CCNc2nc(-c3ccc(Cl)c([N+](=O)[O-])c3)cs2)nc2cc(Cl)c(Cl)cc21 | . | -0.4 | 1.9 | . | .
COc1ccc(-c2nnnn2C)cc1S(=O)(=O)NCc1ccccc1 | -1.1 | -2.6 | -1.7 | -0.8% | -15.0
COc1cccc(/C=C/C(=O)c2ccc3c(c2)OCCO3)c1OC | . | 9.3 | 4.9 | . | .
COc1cc2[nH]c(=O)n(CCC(=O)NC3CCCC3)c(=O)c2cc1OC | 7.6 | -19.5 | -2.6 | -2.1% | -41.5
COC(=O)c1ccc(CN2CCCC(CCC(=O)NCc3ccc(C)o3)C2)cc1 (configuration not stated) | -3.3 | 0.9 | 1.6 | -5.0% | .
COc1ccc(NC(=O)CC2CC3CCC2C3)cn1 (configuration not stated) | -2.2 | 0.7 | 0.3 | 1.4% | .
CS(=O)(=O)c1ccc2nc(NC(=O)CCC(=O)c3cccs3)sc2c1 | -6.0 | -8.3 | -2.4 | 4.8% | -22.6

The last 3 compounds of the part before come first, to join the parts.
SMILES | Arbovirus anti | Mtb bLac sens | RecA splice inh | Mtb growth | YopH inh | others
COC(=O)c1ccc(CN2CCCC(CCC(=O)NCc3ccc(C)o3)C2)cc1 (configuration not stated) | -3.3 | 0.9 | 1.6 | -5.0% | .
COc1ccc(NC(=O)CC2CC3CCC2C3)cn1 (configuration not stated) | -2.2 | 0.7 | 0.3 | 1.4% | .
CS(=O)(=O)c1ccc2nc(NC(=O)CCC(=O)c3cccs3)sc2c1 | -6.0 | -8.3 | -2.4 | 4.8% | -22.6
COc1ccccc1NC(=O)COc1cc(C)nc(C(C)C)n1 | -0.3 | 3.9 | -5.1 | 0.3% | -17.3
COc1ccccc1NC(=O)Nc1nnc(C(C)C)s1 | 11.9 | 3.7 | -1.1 | -5.7% | -27.2
CCSc1ncnc2c1sc1nc3c(cc12)COC(C)(C)C3 | -12.1 | 2.2 | 1.3 | 12.9% | -6.2
O=C(O)CCC(=O)N1CCN(c2ncccc2C(F)(F)F)CC1 | . | -2.5 | -0.1 | -4.8% | .
N#CCC(=O)N/N=C/c1cccc(Oc2ccccc2)c1 | 0.0 | -3.9 | 1.2 | 2.8% | .
Nc1ccc(SC(F)(F)F)cc1C(=O)c1ccccc1 | 7.9 | 5.1 | 2.5 | . | -36.8 | Arbovirus anti repeat=-7.5
Cc1ccc(NC(=O)N2CCCC2C(=O)NCC2CCCCC2)cc1 (configuration not stated) | . | 1.1 | 0.1 | . | .
CC(NC(=O)c1cccs1)C1CCCO1 (configuration not stated) | . | 4.0 | -0.5 | . | .
COc1ccccc1CNC(=O)c1cn(C)c2ccc(S(=O)(=O)N3CCCCC3)cc2c1=O | -5.5 | 3.9 | -2.9 | -1.6% | .
NC(=O)C1=C[C@@H](c2ccc(Br)cc2)C[C@@H](OCCCCO)O1 | 1.1 | -8.2 | 3.3 | -12.0% | .
Cc1nnc(SCC(=O)N(C)c2c(N)n(Cc3ccccc3)c(=O)[nH]c2=O)n1Cc1ccccc1 | 3.0 | 3.7 | -0.9 | -0.2% | .
CN(C(=O)CSc1nc(N)cc(N)n1)C1CCS(=O)(=O)C1 (configuration not stated) | . | -0.6 | 1.8 | . | .
COc1cc(CNCc2ccccc2Cl)ccc1OCC(=O)NC1CCCCC1 | . | -2.3 | 1.8 | . | .
COC(=O)C(NC(=O)C(C)NC(=O)OCc1ccccc1)C(C)C (configuration not stated) | . | -10.8 | 0.5 | -0.1% | .
Cc1onc(-c2c(Cl)cccc2Cl)c1C(=O)N=C(N)N1CCOCC1 | . | -5.8 | -3.4 | -0.7% | .
CCOC(=O)N1CCN(S(=O)(=O)c2ccc(OCC(=O)OC)cc2)CC1 | 2.0 | 7.9 | . | -5.6% | -7.5
Cn1c(=O)c2c(nc(CN3CCN(c4ccc(F)cc4)CC3)n2Cc2ccccc2F)n(C)c1=O | -8.6 | 6.9 | 2.9 | 4.3% | -2.6
Cc1onc(-c2ccccc2)c1C(=O)Nc1ccc(S(=O)(=O)Nc2nccs2)cc1 | . | -1.1 | 1.9 | -4.2% | .
O=C(NCCN1CCOCC1)c1cc2cc([N+](=O)[O-])ccc2s1 | 13.2 | -3.4 | 2.3 | -6.8% | .
CCCCCn1c(=O)[nH]c2cc(C(=O)NCc3ccco3)ccc2c1=O | 10.3 | ? | -1.6 | 3.1% | -11.6

As a short view, six of the compounds above.
SMILES | Arbovirus anti | Mtb bLac sens | RecA splice inh | Mtb growth | YopH inh | others
COc1ccccc1NC(=O)COc1cc(C)nc(C(C)C)n1 | -0.3 | 3.9 | -5.1 | 0.3% | -17.3
COc1ccccc1NC(=O)Nc1nnc(C(C)C)s1 | 11.9 | 3.7 | -1.1 | -5.7% | -27.2
CCSc1ncnc2c1sc1nc3c(cc12)COC(C)(C)C3 | -12.1 | 2.2 | 1.3 | 12.9% | -6.2
O=C(O)CCC(=O)N1CCN(c2ncccc2C(F)(F)F)CC1 | . | -2.5 | -0.1 | -4.8% | .
N#CCC(=O)N/N=C/c1cccc(Oc2ccccc2)c1 | 0.0 | -3.9 | 1.2 | 2.8% | .
Nc1ccc(SC(F)(F)F)cc1C(=O)c1ccccc1 | 7.9 | 5.1 | 2.5 | . | -36.8 | Arbovirus anti repeat=-7.5

Carrying on:
SMILES | Arbovirus anti | Mtb bLac sens | RecA splice inh | Mtb growth | YopH inh | others
CCOc1cc(/C=N/NC(=O)CN2CCOCC2)ccc1OCc1ccccc1 | -1.7 | -3.9 | -1.8 | 6.7% | -26.9
O=C(Nc1ccc(F)cc1Cl)C1CCN(C(=O)Nc2ccccc2)CC1 | . | -5.3 | 0.3 | . | .
Cc1cc(NC(=O)CCC(=O)N(c2ccccc2F)C(C(=O)NC2CCCC2)c2ccccc2)no1 (configuration not stated) | . | 1.2 | 0.1 | . | .
O=C(NC1CC1)c1ccc(NS(=O)(=O)c2ccc(F)cc2)cc1 | . | -7.5 | -0.7 | . | .
Cc1ccnc2nc(C(=O)Nc3ccc4c(c3)OCO4)nn12 | -5.4 | 4.6 | -1.5 | -2.0% | -13.1
Cc1ccc(C)c(N2CCN(c3cnn(-c4nc5ccccc5s4)c(=O)c3Cl)CC2)c1 | -22.2 | 44.9 | 1.5 | -2.1% | -19.6
COc1ccc(NC(=O)CNS(=O)(=O)c2cccc3nonc23)c(OC)c1 | 6.5 | -7.1 | -7.0 | 6.0% | -29.5
CC(=O)c1ccc(NC(=S)N2c3ccccc3CC2C)cc1 (configuration not stated) | 14.3 | -0.8 | 5.4 | -5.0% | .
CSc1ccc(C#N)cc1NC(=O)c1ccccc1C | 4.3 | -5.9 | -1.1 | 2.6% | .
COc1cc(CCC(=O)N2CCN(c3ccc([N+](=O)[O-])cc3)CC2)cc(OC)c1OC | . | 5.1 | 3.7 | . | .
CCC(C)Sc1nc2c(c(=O)[nH]c(=O)n2C)n1Cc1ccccc1Cl (configuration not stated) | 5.1 | -5.9 | 9.9 | 11.1% | . | Arbovirus anti repeat=5.0
Cn1c(=O)c2c(ncn2CCOc2ccc(Br)cc2)n(C)c1=O | . | 1.7 | 1.5 | . | .
COc1ccc(NC(=S)N2CCC(NC(=O)c3ccccc3C)CC2)cc1 | . | -0.2 | -0.3 | . | .
c1csc(COc2ccccc2CNC2CCCCC2)c1 | 0.3 | -2.9 | 4.0 | 1.7% | -28.9
COc1ccccc1-n1c(=O)c(C#N)c(-c2ccc([N+](=O)[O-])cc2)c2cc(C(=O)c3ccccc3O)cnc21 | . | 2.2 | 3.2 | 6.4% | .
O=C(O)c1cc(Br)ccc1NS(=O)(=O)c1cccc2nsnc12 | . | -3.3 | -3.1 | . | .
Cc1nn2c(-n3ccnc3)c3c(nc2c1-c1ccccc1)CCC3 | -12.4 | 3.5 | -0.6 | -1.2% | -37.8
CC(C)(C)N(Cc1ccccc1)C(=O)COc1cccnc1[N+](=O)[O-] | . | 0.9 | 2.8 | . | .
CCOC(=O)c1[nH]c2ccc(Br)cc2c1NC(=O)CCN1CCC(C)CC1 | 2.7 | -4.2 | -0.7 | -6.1% | -19.2
Oc1cccc(C(Nc2nccs2)c2ccc3cccnc3c2O)c1 (configuration not stated) | -22.1 | 7.3 | 0.9 | 3.6% | .
O=C(NCCc1ccc(Cl)cc1)c1cnc2n(c1=O)CCS2 | 4.1 | -1.7 | -3.7 | 2.0% | . | Arbovirus anti repeat=2.0
O=C1c2ccccc2NC(c2ccccc2)N1Cc1ccco1 (configuration not stated) | -1.5 | 2.9 | -1.1 | . | -23.1
CC(=O)c1cccc(OCC(=O)c2cc(C)n(-c3cc(C)on3)c2C)c1 | 5.5 | 7.9 | 3.0 | 17.2% | -2.2
O=C(CSc1ccc2nnc(-c3ccccc3)n2n1)NCC1CCCO1 (configuration not stated) | -1.9 | 4.8 | -1.4 | -7.8% | 26.5
Cc1[nH]c2ccccc2c1C(=O)C(=O)N1CC(C)OC(C)C1 (configuration not stated) | . | 5.5 | -2.2 | . | .
CC(C)CN(C(=O)COC(=O)CSc1ccccc1F)c1c(N)n(Cc2ccccc2)c(=O)[nH]c1=O | . | 3.4 | 0.8 | . | .
Cn1cnnc1SCC(=O)Nc1ccc(Cl)c(S(=O)(=O)N2CCOCC2)c1 | 3.6 | 0.5 | -0.7 | 4.8% | .
COC(=O)Nc1ccc(S(=O)(=O)Nc2ccc(C)cc2)cc1 | 5.2 | . | . | 1.1% | -19.1
Oc1cccc2c3c(oc12)CCCC3 | . | -8.6 | 3.5 | . | .
COc1ccc(NC(=O)c2cc3ccccc3[nH]2)cc1 | . | 11.1 | 0.9 | . | .
COC(=O)c1c(C)[nH]c(C=Nc2ccc(OC)cc2)c1C | . | 93.2 | 0.8 | 87.4% | .
Cc1cc(NC(=O)COc2ccccc2C)ccc1NC(=O)c1ccco1 | . | -7.3 | 10.2 | . | .
CSc1nnc(CCCCCNC(=O)OC(C)(C)C)o1 | . | 0.8 | -1.6 | -0.6% | .
Cn1c(=O)c2c(O)c(Cc3ccccc3)c(=O)[nH]c2n(C)c1=O | 21.8 | -2.8 | 0.2 | -1.4% | -41.7
Cc1nc2cc(NC(=O)Nc3cccc(F)c3)ccc2n1C | . | -8.6 | 1.7 | 0.7% | .
CN(CC(=O)Nc1ccccc1Br)C(=O)c1ccc(-c2ccc(Cl)cc2)o1 | . | 55.3 | 3.5 | . | .
O=C(CN1C(=O)/C(=C/c2ccccc2F)Sc2ccccc21)N1CCN(c2ccccn2)CC1 | -0.2 | 0.8 | 3.8 | 0.8% | .
C=CCn1c(=O)c(C(=O)NC(C)c2ccccc2)c(O)c2ccccc21 (configuration not stated) | . | -2.2 | 2.2 | . | .
O=C(NNC(=S)NCC1CCCO1)c1cccc(S(=O)(=O)N2CCOCC2)c1 (configuration not stated) | -6.8 | 10.7 | -0.5 | 0.2% | .

An excerpt. The share of hits here may be higher or lower than overall.
